# YjeE inh – displaces an ADP probe from E. coli YjeE (TsaE); 0.05% of 71,000 active; P0AF67; AID 605; purified YjeE, fluorescence polarisation of a bound ADP probe; Potency, µM; active = well fitted falling curve; inconclusive = weaker or top-dose-only fall, or a rising curve; inactive = flat or poorly fitted curve;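 note: top concentration of the series not given in the record; excess ADP was the control for the full effect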
#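 Purified YjeE (10 uM) with BODIPY Texas Red-labeled ADP probe (2 uM); compounds pin-transferred, 15 min at room temperature. Binding inhibition read as decreased fluorescence polarization; ADP titration as control.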
# PK Bst – pyruvate kinase (B. stearothermophilus) modulation; partly purified Bacillus stearothermophilus pyruvate kinase, luminescence ATP production; ribose 5-phosphate activator present at AC10; Potency, µM; 1.2% of 51,000 active; AID 361; in the data active means potency below about 11 µM; inconclusive means mostly about 12 µM to 25 µM; inactive means weaker than that;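 the screen sought inhibitors and activators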;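 note: potency is the fitted concentration of half-maximal effect; scaled between full activation by ribose 5 phosphate and full inhibition by luteolin; about four in five hits inhibit and the cells do not say which; series up to 57 µM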
# Starred values were filed as active, the others as inactive; i = inactive; . = not tested or not shown. The list is partial. The share of hits here may be higher or lower than overall.
# Start of the listing, in advance:
YjeE inh,PK Bst,compound
i,>57,Cn1c(=O)c2c(nc(CN3CCc4ccccc4C3)n2Cc2ccccc2)n(C)c1=O
i,>57,COc1ccc(C(=O)n2nc(-c3ccc(Cl)cc3)nc2N)cc1OC
i,>57,CCCn1nc(C(=O)N2CC(=O)Nc3ccccc32)c2ccccc2c1=O
i,.,Cc1cccc(C2CC(c3ccc(Br)cc3)Nc3nc(N)nn32)c1 (configuration not stated)
i,.,COc1ccccc1NC(=O)CSc1ncn[nH]1
i,.,C[C@H](N=C(NC#N)Nc1ccncc1)C(C)(C)C
i,.,Cc1ccc(Nc2c3c(nc4ncnn24)CCC3)cc1

# All compounds of this part, repeating the preview:
YjeE inh,PK Bst,compound
i,>57,Cn1c(=O)c2c(nc(CN3CCc4ccccc4C3)n2Cc2ccccc2)n(C)c1=O
i,>57,COc1ccc(C(=O)n2nc(-c3ccc(Cl)cc3)nc2N)cc1OC
i,>57,CCCn1nc(C(=O)N2CC(=O)Nc3ccccc32)c2ccccc2c1=O
i,.,Cc1cccc(C2CC(c3ccc(Br)cc3)Nc3nc(N)nn32)c1 (configuration not stated)
i,.,COc1ccccc1NC(=O)CSc1ncn[nH]1
i,.,C[C@H](N=C(NC#N)Nc1ccncc1)C(C)(C)C
i,.,Cc1ccc(Nc2c3c(nc4ncnn24)CCC3)cc1
i,>57,COc1n[nH]c2nncnc12
i,>57,COc1ccc(S(=O)(=O)Nc2nc(C(F)(F)F)cs2)cc1
i,.,CCCC(=O)c1c(C)c2ccccc2n1C
i,>57,COC(=O)CSc1nc2cc(C)cc(C)c2cc1C#N
i,>57,CN1CCN(C(=O)c2cc(-c3ccccc3)on2)CC1
i,.,CC(C)C(NS(=O)(=O)c1ccc2c(c1)oc(=O)n2C)C(=O)N1CCN(Cc2ccccc2)CC1 (configuration not stated)
i,.,NC(=O)Nc1n[nH]c(-c2ccccc2)n1
i,.,CCOc1ccc(OCC)c(Nc2cc(C)nc3ncnn23)c1
i,>57,CCOc1cc2[nH]c(=S)n(CC3CCCN3CC)c(=O)c2cc1OCC (configuration not stated)
i,.,O=C(CSC1=NCCS1)Nc1nc(-c2ccccc2)cs1
i,>57,Cn1c(=O)c2c(nc(CN3CCOCC3)n2Cc2ccccc2)n(C)c1=O
i,.,CCOc1ccc(NC(=O)CSc2nnc(Cc3cccn3C)n2-c2ccc(F)cc2)cc1
i,>57,O=c1[nH]c(SCCOc2ccccc2)nc2ccccc12
i,>57,CS(=O)(=O)N1CCN(c2ccccc2NC(=O)c2cccs2)CC1
i,9.2*,COc1ccc(-c2cc(N3CCCC3)n3ncnc3n2)cc1
i,>57,CCn1c(=Nc2ccc(N3CCOCC3)cc2)ccc2ccccc21
i,>57,CCC(C)(C(=O)NC1CCCC1)N(C(=O)c1ccccn1)c1ccccc1 (configuration not stated)
i,>57,CCn1c(CNc2ccccc2Cl)nnc1SCC(=O)NCc1ccccc1
i,>57,COC(=O)c1cc(S(=O)(=O)N2CCOCC2)ccc1Sc1ccccc1N
i,.,COC(=O)CCCC(=O)O
i,>57,COc1cc(NC(=O)C2CCN(S(=O)(=O)c3ccc(Cl)cc3)CC2)ccc1-n1cnnn1
i,>57,CC(C)(C)NC(=O)Cn1c(SCC(=O)NC2CCCCC2)nc2ccccc21
i,>57,CCN(CC)C(=O)CSc1nc(O)cc(=O)n1C

# 3 structures out of the list, ordered by length of the SMILES, falling.
YjeE inh,PK Bst,compound
i,>57,CC(C)(C)NC(=O)Cn1c(SCC(=O)NC2CCCCC2)nc2ccccc21
i,>57,CCC(C)(C(=O)NC1CCCC1)N(C(=O)c1ccccn1)c1ccccc1 (configuration not stated)
i,9.2*,COc1ccc(-c2cc(N3CCCC3)n3ncnc3n2)cc1

# Later entries:
YjeE inh,PK Bst,compound
i,>57,COc1cc(OC)c(C(=O)COc2ncnc3ccccc23)c(OC)c1
i,.,O=C(NCCc1cn2ccccc2n1)C1CCCCC1
i,>57,CCc1ccc2oc(=O)cc(CN(C)Cc3ccccc3)c2c1
i,.,CCOC(=O)N1CCC(NC(=O)c2ccc(CS(=O)(=O)c3c(Cl)cccc3Cl)o2)CC1
i,>57,Cc1cc(C)nc(SCCn2c(N3CCCCC3)nc3c2c(=O)n(C)c(=O)n3C)n1
i,.,CNc1ncnc2c1ncn2[C@@H]1O[C@@H](CO)[C@H](O)[C@@H]1O
i,.,N#CC1(Nc2ccc(-c3ccc(NC4(C#N)CCCC4)cc3)cc2)CCCC1
i,>57,CC(C)c1ccc(NC(=O)C2CCN(S(C)(=O)=O)CC2)cc1
i,>57,CCOC(=O)N1CCC(NC(=O)C2CCN(S(=O)(=O)N3CCCC3)CC2)CC1
i,>57,COc1ccc(C(=O)N2CCN(C(C)=O)CC2)cc1S(=O)(=O)NCc1ccc(Cl)cc1
i,.,Cc1cc(OCCCCCNCCO)cc(C)c1Cl
i,>57,Cc1noc(C)c1C(=O)NCc1cccs1
i,>57,COc1ccc(-c2csc(Cc3nnc4n3CCCCC4)n2)cc1
i,>57,Cn1c(=O)oc2cc(S(=O)(=O)N3CCC4(CC3)OCCO4)ccc21
i,>57,COc1ccc(OCC(=O)Nc2ccc3c(c2)nc2n3CCSC2)cc1
i,>57,COc1ccccc1N1CCN(C(CNC(=O)c2ccc3c(c2)OCO3)c2cccnc2)CC1 (configuration not stated)
i,>57,CCCOC(=O)C1C2C=C[C@]3(CN(CCc4ccccc4)C(=O)[C@H]13)O2 (some centres not stated)
i,.,O=C(Nc1ccon1)c1sc2ccccc2c1Cl
i,>57,Cc1cccc2cc(COC(=O)C(C)(C)C)c(=O)[nH]c12
i,.,O=C(c1ccccc1)c1nc[nH]c1C(=O)Nc1ccccc1
i,>57,CCOC(=O)C1C(c2cccs2)NC(=O)NC1(O)C(F)(F)F (configuration not stated)
i,>57,O=C(CN1C(=O)C2C3C=CC(C3)C2C1=O)Nc1cccc2c1CCCC2 (configuration not stated)
i,>57,NC(=O)SC/C(=N\S(=O)(=O)c1ccccc1)Nc1ccccc1
i,>57,COc1ccccc1NC(=O)CSc1nnc(Cc2cccn2C)n1CCc1ccccc1
i,>57,CCCn1nc(NC(=O)c2ccco2)c2cc3ccc(C)cc3nc21
i,.,COc1ccc(-c2nc3cnc(Nc4cccc(OC)c4)nc3n(CCC#N)c2=O)cc1
i,>57,CC(C)OC(=O)c1nnn(-c2nonc2N)c1CN1CCc2ccccc2C1
i,>57,CCN(CC)S(=O)(=O)c1ccc(NC(=O)COc2c(OC)cccc2OC)cc1
i,>57,CCOC(=O)N1CCN(C(=O)CCSCCc2ccncc2)CC1
i,>57,COc1ccc2c(c1)CCc1c(C(=O)Nc3ccn(Cc4ccc(C)cc4)n3)noc1-2
i,>57,COc1ccc(-c2csc(NC(=O)Cn3nc(C)cc3C)n2)cc1
i,.,c1ccc2[nH]c(-c3nc4ccccc4[nH]3)nc2c1
i,>57,CCCCN1C(=O)c2ccc(C(=O)NC3=NCCS3)cc2C1=O
i,>57,Cc1ccc(C)c(N2CCN(S(=O)(=O)c3ccc4[nH]c(=O)c(=O)[nH]c4c3)CC2)c1
i,.,O=C1CCC(=O)N1CC(=O)N1c2ccccc2Sc2ccccc21
i,.,Cc1ccc(CCNC(=O)C2CCCN(S(=O)(=O)c3c(C)noc3/C=C/N(C)C)C2)cc1 (configuration not stated)
i,>57,O=C(COc1ccc(Cl)cc1Cl)NCCCn1ccnc1
i,>57,CCc1nnc(NC(=O)C2CCN(S(=O)(=O)Cc3ccccc3)CC2)s1
i,.,COC(=O)c1ccc(N2C(=O)CC(N(C)CCc3ccc(OC)c(OC)c3)C2=O)cc1 (configuration not stated)
i,>57,O=C(Nc1ccccc1-c1ccccc1)C1CCCN(c2ncccn2)C1 (configuration not stated)
i,.,COc1cccc(/C=N/n2c(SC)nnc2-c2ccccc2)c1O
i,.,COc1cccc2c1C(=O)c1c(O)c3c(c(O)c1C2=O)C[C@](O)(C(=O)CO)C[C@@H]3O[C@H]1C[C@H](N)[C@@H](O)[C@H](C)O1
i,>57,COc1cccc2cc(C(=O)N3CCN(c4ncccn4)CC3)c(=O)oc12
i,.,COc1ccc(NC(=O)c2ccc(CN3CCN(c4ccccc4)CC3)cc2)cc1
i,>57,O=C(NC1CCCCC1)N(Cc1cc2cc3c(cc2[nH]c1=O)OCCO3)CC1CCCO1 (configuration not stated)
i,>57,COc1ccccc1OCCSc1ncnc2nc[nH]c12
i,.,COc1cc(C)c(CN2CCCCC2CO)cc1C (configuration not stated)
i,>57,CCOC(=O)C1(CC)NC(c2cccc(F)c2)C2C(=O)N(CC)C(=O)C21 (configuration not stated)
i,>57,Cc1ccc(CN(Cc2cccnc2)C(=O)CN2C(=O)COc3ccccc32)o1
i,>57,CCCc1c(O)nc(SC2CC(=O)N(c3cc(OC)ccc3OC)C2=O)[nH]c1=O (configuration not stated)

# Next section
YjeE inh,PK Bst,compound
i,>57,CCOC(=O)C1CCCN(CCC(=O)Nc2ccc(F)c(F)c2)C1 (configuration not stated)
i,.,O=c1c(-c2cccc(Cl)c2)nc2cncnc2n1Cc1ccccc1
i,>57,CCOC(=O)CSc1nc2ccc(N3CCOCC3)cc2c(=O)n1Cc1ccc2c(c1)OCO2
i,i,Cc1cc(=O)[nH]c2cc(Cl)ccc12
i,>57,O=C(CCc1ccc(S(=O)(=O)N2CCOCC2)cc1)OCc1nc2ccccc2s1
i,>57,CCCn1nnc(NC(=O)c2ccc(Cl)cc2Cl)n1
i,.,NC(=O)C1CCN(CCCNC2CC(=O)N(Cc3ccc(N4CCCC4=O)cc3)C2=O)CC1 (configuration not stated)
i,.,CC(=O)Cn1c(C(F)(F)F)nc2ccccc21
i,>57,N#CC1=C(N)C2=C(N3CCCCC3)CCCC2C1(C#N)C#N (configuration not stated)
i,.,CN1/C(=C/C(=O)C2CCC2)Sc2ccccc21
i,>57,O=C1CC(C(=O)Nc2ccc(Br)cc2)C2(CCCC2)O1 (configuration not stated)
i,>57,Cc1ccc(C(=O)N2Cc3ccccc3CC2C(=O)O)cc1 (configuration not stated)
i,.,COc1ccc(C(=O)N2CCC[C@@]3(CCN(C(=O)Nc4cccc(C#N)c4)C3)C2)cc1
i,.,Cc1c(C(=O)NCc2cccnc2)oc2ccc(S(=O)(=O)N3CC(C)CC(C)C3)cc12 (configuration not stated)
i,>57,CCOC(=O)c1sc2nc(SCC(=O)NCc3ccco3)n(Cc3ccccc3)c(=O)c2c1C
i,>57,O=C(CC1SC(=O)N(c2ccccc2)C1=O)Nc1ccccc1 (configuration not stated)
i,>57,CCCC(=O)Nc1ccc(NC(=O)C23CC4CC(CC(C4)C2)C3)cn1
i,>57,CCc1nc2ccccc2c(C(=O)OCC(=O)Nc2ccc(S(=O)(=O)N3CCOCC3)cc2)c1C
i,.,COC(=O)[C@@]1(Cc2ccc(OC)cc2)[C@H]2c3cc(C(=O)N(C)C)[nH]c3C[C@H]2CN1C(=O)c1ccccc1
i,>57,O=C1CC(=O)CC(c2ccco2)C1
i,.,COc1ccc(-c2nnc(SCC(=O)NC(C)c3ccccc3)o2)cc1 (configuration not stated)
i,>57,CCOc1ccccc1Cn1c(=O)oc2ccc(C)cc21
i,>57,CN(CC(=O)N1CCN(c2ccc(F)cc2)CC1)S(=O)(=O)c1ccc(F)cc1
i,>57,COc1ccc2nc(SCC(=O)Nc3ccc(S(=O)(=O)N4CCCC4)cc3)c(C#N)cc2c1
i,.,CN1CCCC2(CCN(C(=O)c3cccc(F)c3)CC2)C1
i,.,O=C(c1csnn1)N1CCC2(CC1)CCN(C(c1ccccc1)c1ccccc1)CC2
i,>57,COc1ccc(Cl)cc1NC(=O)CN1C(=O)CCS(=O)(=O)c2ccccc21
i,>57,COC(=O)Cn1nc(-c2ccccc2)n(-c2ccccc2)c1=S
i,.,COc1ccc(Oc2ncc3nc(C)c(=O)n(Cc4ccc(F)cc4)c3n2)cc1
i,.,COc1ccccc1CNc1ccnc(-c2ccc(N(C)C)cc2)n1
i,>57,CC1CCCN(C(=O)CSc2nnc3n(C4CCCC4)c(=O)c4ccccc4n23)C1 (configuration not stated)
i,.,CCOc1ccc(N(C(C)C(=O)NC2CCCCCC2)S(C)(=O)=O)cc1 (configuration not stated)
i,>57,Cn1c(=O)[nH]c(=O)c2[nH]c(NCCCN3CCOCC3)nc21
i,.,COc1ccc(CCn2c(-c3ccco3)nc3ccccc3c2=O)cc1OC
i,>57,COc1ccc(CC(=O)N2CCN(C(=O)c3ccco3)CC2)cc1
i,>57,CC1CN(S(=O)(=O)c2cccs2)CC(C)O1 (configuration not stated)
i,>57,Cc1nnc(SCC(=O)Nc2ccc3c(c2)OCCO3)n1CC1CCCO1 (configuration not stated)
i,>57,O=C(N1CCOCC1)N1CCC(n2nnc3cc(F)ccc32)CC1
i,>57,Cn1c(=O)c2c(nc(OCC3COC(C)(C)O3)n2Cc2ccccc2F)n(C)c1=O (configuration not stated)
i,>57,C/C(NCC(C)(C)CN(C)C)=C(/C#N)C(=O)NCc1ccccc1
i,.,Cc1ccc(Sc2oc(/C=N/n3cnnc3)cc2Br)cc1
i,>57,CC(C)c1ccccc1NC(=O)c1cccnc1
i,>57,CC(Sc1nc2ccccc2s1)C(=O)N1CCOCC1 (configuration not stated)
i,>57,CCC(Sc1nc(=O)cc(N)n1-c1cccc(C)c1)C(=O)Nc1cc(C)on1 (configuration not stated)
.,>26,N#CC1=C(C=Nc2ccccc2O)CCC1
i,>57,CN1CCN(C(=O)N2CCNC2=O)CC1

# Assay outcomes deposited in PubChem BioAssay by National Center for Advancing Translational Sciences (NCATS).
